Rango-impB inh: Rango-importin beta binding inhibition. Rango CFP/YFP FRET sensor + importin beta, 45 min. Potency, µM (series often up to 92.2 µM), without a hit: at the highest dose inhibition of complex formation. 340,000 compounds, 0.031% hits; active = rising FRET ratio curve, often small or poorly fitted; inconclusive = mostly compound fluorescence or quenching in the first reads; inactive = flat curves in all reads;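 note: potency is the fitted concentration of half-maximal effect; 0% = DMSO wells and 100% = buffer wells lacking importin beta; nearly all actives have a fitted effect of over 15% in size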
Target sequence (Q14974 whole entry, looked up): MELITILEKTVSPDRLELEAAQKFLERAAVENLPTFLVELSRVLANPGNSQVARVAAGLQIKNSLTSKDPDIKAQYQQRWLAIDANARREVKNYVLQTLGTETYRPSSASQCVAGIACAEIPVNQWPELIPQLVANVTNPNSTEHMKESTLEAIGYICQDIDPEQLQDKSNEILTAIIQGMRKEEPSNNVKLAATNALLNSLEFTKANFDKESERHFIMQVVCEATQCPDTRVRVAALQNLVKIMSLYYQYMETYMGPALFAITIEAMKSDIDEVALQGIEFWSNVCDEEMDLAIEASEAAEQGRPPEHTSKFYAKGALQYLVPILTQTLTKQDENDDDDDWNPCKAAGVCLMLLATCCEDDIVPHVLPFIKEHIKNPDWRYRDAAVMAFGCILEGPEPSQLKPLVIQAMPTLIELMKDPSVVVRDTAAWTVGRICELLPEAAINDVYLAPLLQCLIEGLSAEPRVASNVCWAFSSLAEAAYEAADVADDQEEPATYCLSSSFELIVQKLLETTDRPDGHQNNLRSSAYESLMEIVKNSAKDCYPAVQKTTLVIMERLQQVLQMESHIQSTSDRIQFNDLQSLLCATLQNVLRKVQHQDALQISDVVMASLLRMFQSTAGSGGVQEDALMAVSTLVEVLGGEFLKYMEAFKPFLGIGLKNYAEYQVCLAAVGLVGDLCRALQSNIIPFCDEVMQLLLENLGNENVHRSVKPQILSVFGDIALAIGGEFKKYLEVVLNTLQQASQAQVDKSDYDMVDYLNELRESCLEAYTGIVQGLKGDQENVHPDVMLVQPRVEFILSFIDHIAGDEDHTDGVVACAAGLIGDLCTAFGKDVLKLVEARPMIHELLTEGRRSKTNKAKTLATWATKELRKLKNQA
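FRET biosensor (snurportin 1 IBB flanked by EYFP and cerulean), 50 nM, with compound 5 min, then 0.125 microM importin beta in PBS, 1 mM DTT, 0.02% Tween-20, 0.1% BSA. CFP/YFP ratio read after 45 min at room temperature; pre-read flags interference.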
Rango dissoc inh: inhibition of RanGTP-driven Rango-importin beta dissociation | AID 540253 | 340,000 compounds, 0.071% hits | Biochemical FRET Rango-importin beta, RanGTP-induced dissociation | O95149+P62826 | Potency, µM (series often up to 46.1 µM), for inactives: top-dose activity change, negative = inhibition; active means falling FRET ratio curve, often poorly fitted, with flat reads before Ran was added; inconclusive means other falling curves, or compound fluorescence or quenching; inactive means flat or rising ratio curve;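 note: potency is the fitted concentration of half-maximal effect; % of control where 0% means no effect; nearly all actives have a fitted effect of over 45% in size; -100% = wells without RanGTP and RCC1; the record marks most hits as doubtful in a second field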
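FRET read at 45 min, room temperature: inhibitors block the CFP/YFP signal rise when RanGTP (0.6 uM Ran, 2 mM GTP, 0.2 uM RCC1) frees Rango (0.1 uM) from importin beta (0.25 uM). Pre-read after 5 min compound exposure flags interference.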
GLA inh pH 4.5: inhibitors of human alpha-galactosidase A at pH 4.5; purified enzyme, 4-MU-alpha-Gal fluorescence, pH 4.5; activity change, negative = inhibition, % at 105 µM; 230,000 tested, under 10 active; AID 1467; inconclusive = small, poorly fitted or top-dose-only inhibition, or a rising curve; inactive = flat fitted curve, though single readings scatter; no compound was filed as active;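 note: 0% = full activity with enzyme and -100% = basal without enzyme; dose as in the result columns while the protocol names 77 µM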
miR-21 FLuc: raises the signal of a miR-21 reporter | HeLa miR-21 FLuc reporter, luciferase, 48 h | Potency, µM (highest dose often 38.3 µM), inactives show at the highest dose reporter change, positive = more light | 340,000 tested, under 10 active; active = well fitted rising curve with a large enough effect; inconclusive = small, poorly fitted or top-dose-only effect; inactive = no such curve, though single readings can be large or run the other way;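 note: % of control where 0% means no effect; miR-21 action dims this reporter so a rising signal means less miR-21 action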
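Luminescence from a firefly luciferase reporter carrying a miR-21 binding site downstream, stably expressed under a CMV promoter in HeLa cells that make miR-21 endogenously, reports miRNA modulation after 48 h compound exposure up to approximately 40uM final.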
Numbers without * were called inactive; ? = inconclusive; / = no result given; & = joins results of further samples. Only part of the results is shown. The share of hits here may be higher or lower than overall.

Rango-impB inh	Rango dissoc inh	GLA inh pH 4.5	miR-21 FLuc	SMILES
-1.5%	-0.3%	3.3	-6.1%	CCN(CC)Cc1cc(NC2=NS(=O)(=O)c3ccccc32)ccc1OC(=O)C(C)C
-2.4%	11.8%	-3.4	-1.5%	Cc1ccc(C(=O)NNc2ncnc3c2cnn3C)cc1
5.0%	9.9%	-2.5	-2.4%	CC(=O)Nc1c(C(=O)C2CC2)oc2ccccc12
0.1%	-1.9%	-2.4	-6.5%	CCNc1nc(Cl)nc(NCCOc2ccc(C)cc2)n1
2.6%	5.5%	2.7	-1.2%	CCC(SC1=NCCS1)C(=O)Nc1ccc(S(N)(=O)=O)cc1 (centres undefined)
-1.6%	15.5%	/	/	COc1ccccc1C1OCC(C)(C)CO1
15.8%	-11.1%	6.2	-28.8%	COc1ccc2c(c1OC)C(=O)N(c1nccs1)C2
-1.0%	1.0%	-9.9	-29.1%	O=[N+]([O-])c1cc(/C=N/OCc2c(Cl)cccc2Cl)ccc1N1CCOCC1
-0.8%	-9.4%	-1.5	7.5%	COC(=O)c1c(NC(=O)CSc2nnc(-c3ccco3)n2Cc2ccccc2)sc(C)c1C
1.5%	1.6%	/	-17.4%	CCN(CC)C(=O)c1ccc(COc2ccc(Cl)c(C)c2)o1
6.1%	1.7%	3.5	-8.7%	CCc1ccc(N2CC(C(=O)Nc3ccccc3F)CC2=O)cc1 (centres undefined)
-1.5%	-10.5%	9.2	5.9%	CC(C)CC(=O)NC(c1cccs1)c1ccc2cccnc2c1O (centres undefined)

Compounds above that contain a furan ring, fused or not (3):
Rango-impB inh	Rango dissoc inh	GLA inh pH 4.5	miR-21 FLuc	SMILES
5.0%	9.9%	-2.5	-2.4%	CC(=O)Nc1c(C(=O)C2CC2)oc2ccccc12
-0.8%	-9.4%	-1.5	7.5%	COC(=O)c1c(NC(=O)CSc2nnc(-c3ccco3)n2Cc2ccccc2)sc(C)c1C
1.5%	1.6%	/	-17.4%	CCN(CC)C(=O)c1ccc(COc2ccc(Cl)c(C)c2)o1

(more compounds)
Rango-impB inh	Rango dissoc inh	GLA inh pH 4.5	miR-21 FLuc	SMILES
0.1%	-6.3%	/	0.7%	Cc1nc([N+](=O)[O-])cn1CC(=O)c1ccc(OC(F)(F)F)cc1
-5.1%	16.6%	-1.8	-25.9%	O=C(NC(=S)Nc1ccc(N2CCCC2)cc1)c1ccccc1[N+](=O)[O-]
-2.4%	-0.8%	-6.7	-2.7%	CNC(=O)C1CC(=O)N(Cc2ccc3c(c2)OCO3)C(=Nc2ccc(F)cc2)S1 (centres undefined)
1.1%	-8.6%	/	/	N#Cc1ccccc1OCC(=O)N1CCN(S(=O)(=O)c2ccc(Cl)cc2)CC1
-0.3%	-1.0%	/	0.3%&-1.0%	CCCNC(=O)C1CCC(CNS(=O)(=O)c2ccc3c(c2)CC(C)N3C(C)=O)CC1 (centres undefined)
1.8%	-4.4%	/	-5.2%	O=S(=O)(c1ccccc1)C1(C2CC(c3ccccc3)=NO2)CC(O)C1 (centres undefined)
0.5%	-5.3%	/	/	CC(C)(C)c1ccc(NC(=O)COC(=O)c2ccc(CN3CCCC3=O)cc2)cc1
0.4%	-1.3%	/	5.9%	CC(OC(=O)c1ccco1)C(=O)NCc1ccc2c(c1)OCO2 (centres undefined)
3.2%	-12.9%	12.7	1.7%	Cc1ccc(CNC(=O)COC(=O)Cc2ccc(-c3ccccc3)cc2)cc1
-1.7%	-18.0%	-3.1	-30.5%	Cc1cc(C)nc(Nc2ccc(C)c([N+](=O)[O-])c2)n1
?	9.2µM*	?	-1.2%	Fc1ccc(N2N=C(c3cccs3)CC2c2ccccc2)cc1 (centres undefined)
-0.9%	17.2%	/	-1.6%	Cc1cc(C)c(OCC(O)CN2CCN(C(=O)c3ccccc3)CC2)c(C)c1 (centres undefined)
-1.2%	0.2%	9.9	14.2%	COc1ccccc1NC(=O)COC(=O)c1ccccc1C(=O)N1CCN(c2ccccc2)CC1
-0.9%	-5.5%	/	/	Brc1cc2c(cc1C1OCCCO1)OCO2
2.5%	32.1%	2.3	-15.3%	COC(=O)c1ccc(N=Cc2c(C(F)(F)F)[nH]n(C)c2=O)cc1
?	?	?	20.7%	Nc1ccc(-c2nc3ccc(C(=O)O)cc3s2)cc1
0.1%	13.1%	/	/	CCOc1c(Cl)cc(/C=C/C(=O)N(CC)CC(=O)NCc2cccs2)cc1OC
0.6%	-12.5%	-1.0	-2.9%	Cc1cccc(C)c1N1CCN(C(=O)Cn2cncn2)CC1
-4.3%	-21.2%	-5.7	4.6%	O=C(COC(=O)c1cccnc1Cl)NCc1ccco1
2.5%	-5.1%	3.1	-0.6%	CC1CCc2c(c3ccccc3[nH]c2=O)O1 (centres undefined)
-0.4%	-1.7%	/	/	O=C(Cn1ccc(NC(=O)OCc2ccccc2)nc1=O)NCCc1ccccn1
2.4%	10.0%	1.0	0.5%	CCn1c(COc2c(C)cccc2C)nnc1SCc1nc2ccccc2c(=O)[nH]1
0.9%	8.1%	/	/	COc1ccccc1NC(=O)C(C)Sc1nccn1C (centres undefined)
?	-7.9%	/	3.5%	Clc1cccc(CN2CCc3c([nH]c4ccccc34)C2)c1Cl
0.2%	-12.7%	-8.3	0.5%	Cc1cc(C(=O)N/N=C2\CC(=O)CC(C)(C)C2)c2ccccc2n1
-0.7%	-17.3%	4.5	-53.7%	C=CCSc1ncc(-c2ccccc2)cn1
0.8%	0.7%	-1.2	-8.8%	Cc1cc(NC(=O)C2C3C(=O)N(CCC(C)C)C(C(=O)NCc4ccccc4)C34C=CC2(C)O4)no1 (centres undefined)
3.2%	33.6%	/	/	CCCCNc1nnc(SCC(=O)c2c(N)n(CCC)c(=O)[nH]c2=O)s1
-1.5%	6.9%	/	/	CC[C@@H](C)[C@@H]1CN([C@@H](C)CN2CCC[C@H]2CN2C(N)=NC[C@@H]2Cc2ccccc2)C(=N)N1CCCC1CCCC1
-5.3%	?	/	?	O=C(N/N=C/c1ccc([N+](=O)[O-])o1)c1ccc(O)cc1
-0.2%	-7.5%	1.6	4.1%	CSc1ccccc1NC(=O)CN(C)CC(=O)Nc1ccccc1C(F)(F)F
-3.0%	0.7%	/	-67.3%	COc1ccc(N2Cc3ccc(OC)c(OC)c3C2=O)cc1
-2.1%	-8.5%	2.4	-1.7%	Cc1c(Nc2cc(N3CCCC(C)C3)c3nonc3c2[N+](=O)[O-])c(=O)n(-c2ccccc2)n1C (centres undefined)
0.2%	-1.0%	3.1	-1.3%	Cc1ccccc1N(C(=O)Cc1c[nH]c2ccccc12)C(C(=O)NC1CCCCC1)c1ccco1 (centres undefined)
-0.5%	3.5%	5.7	1.9%	O=S(=O)(Nc1ccccc1O)c1cccc2cccnc12
2.3%	-12.0%	7.0	-26.2%	COc1ccc(CC(=O)N2CCN(c3ccc(C4=NNC(=O)CC4C)cc3)CC2)cc1 (centres undefined)
0.1%	9.1%	0.8	-2.1%	COc1ccccc1/C=[N+](\[O-])C1SC(=S)N(C)C1(C)C (centres undefined)
-1.1%	-10.3%	-2.8	-1.1%	O=C(Cc1n[nH]c(=O)c2ccccc12)Nc1ccc(-c2nnc3n2CCCCC3)cc1
?	-20.7%	2.9	-25.7%	COc1cc(/C=N/NC(=Nc2ccc(C)cc2)c2nc3ccccc3s2)ccc1O
-2.3%	-0.7%	9.2	17.8%	c1ccc2c(c1)[nH]c1c(N3CCC4(CC3)OCCO4)ncnc12
0.2%	-7.4%	4.5	-6.9%	Cc1c(Br)c([N+](=O)[O-])nn1C(C)C(=O)N1CCCc2ccccc21 (centres undefined)
0.1%	-7.8%	0.0	11.6%	CCOC(=O)N1CCN(C(=O)CSCc2nc(-c3ccccc3F)oc2C)CC1
-2.4%	3.9%	0.1	-4.3%	COc1cc(OC)c(OC)cc1CN1CCN(c2ccccc2OC)CC1
8.0%	5.5%	/	/	CN(CC(=O)Nc1cccc(F)c1)C(=O)c1cn(-c2ccccc2)nc1-c1ccc(F)cc1
-0.4%	0.1%	5.7	-3.7%	COc1ccc(S(=O)(=O)NC(CC(=O)O)c2ccco2)cc1 (centres undefined)
0.9%	?	11.1	-0.6%	CCCCOCCCNC(=O)CCCOc1ccccc1
0.2%	-2.7%	-10.3	-1.9%	CCO[C@H]1OC(C(=O)N2CCOCC2)=C[C@@H](c2coc3ccccc3c2=O)[C@@H]1CCCO
-0.6%	-6.3%	-2.0	-15.4%	COc1cc(CN2CCNC(=O)C2CC(=O)N2CCCO2)cc(OC)c1 (centres undefined)
5.3%	8.5%	-5.4	-4.8%	C=CCSc1nnc(-c2nnc(SCC=C)n2-c2ccccc2)n1-c1ccccc1
-3.7%	16.5%	-2.2	19.4%	COc1ccc2[nH]cc(/C=N/NS(=O)(=O)c3ccc(C)cc3)c2c1
?	?	3.2	-5.7%	CC(C)CN(C(=O)CN1CCCCCC1)c1c(N)n(CC(C)C)c(=O)[nH]c1=O
5.9%	?	/	-4.8%	COCCN1C(=O)N(c2cccc(OC)c2)C(=O)C1CC(=O)Nc1ccc(OC)cc1 (centres undefined)
-0.6%	0.0%	/	-4.6%	O=C(NC1CCCCCC1)c1ccc(CS(=O)(=O)Cc2ccccc2F)o1
1.3%	0.1%	2.8	-6.1%	Cc1ccccc1N(CC(=O)O)S(C)(=O)=O
7.5%	24.9%	/	-66.1%	Cc1cc(Cl)c2oc(C(=O)N3CCN(c4cccc(C)n4)CC3)c(C)c2c1
10.0%	1.7%	/	-9.1%	CC(OC(=O)CNC(=O)c1ccc2ccccc2c1)C(=O)NC1CCCCC1C (centres undefined)
-2.4%	-17.0%	0.9	13.9%	NS(=O)(=O)c1ccc(CCNC(=O)CSc2ccsc2[N+](=O)[O-])cc1
-0.8%	-5.4%	-0.7	21.2%	Cc1ccc(C(=O)c2cnc3ccccc3c2-c2ccccc2)cc1
-2.8%	5.4%	/	-1.6%	O=C(NC1CCCCC1)C(c1cccnc1)N(C(=O)c1csnn1)c1ccccc1F (centres undefined)
2.1%	-15.7%	/	/	O=C(Nc1cc(S(=O)(=O)N2CCOCC2)ccc1Cl)c1ccncc1

(continued)
Rango-impB inh	Rango dissoc inh	GLA inh pH 4.5	miR-21 FLuc	SMILES
-2.0%	-2.5%	/	/	CC(C)n1ncc2c(C(=O)Nc3ccc(CC#N)cc3)cc(C3CC3)nc21
0.0%	-3.4%	-4.3	-9.5%	Cc1cccc2cc(CN(CC3CCCO3)C(=S)Nc3ccccc3)c(=O)[nH]c12 (centres undefined)
-0.9%	-4.1%	/	/	c1ccc2c(C[C@@H]3CNCCN3CCC34CC5CC(CC(C5)C3)C4)cccc2c1
4.5%	0.9%	-9.3	-8.2%	COC(=O)c1cc(C#N)c(Oc2cccc(C)c2C)nc1C
2.0%	23.2%	0.5	0.3%	O=C(Cc1c(Cl)cccc1Cl)Nc1cccnc1
?	?	/	/	Cn1cccc1C(=O)OCc1nc2ccccc2c(=O)[nH]1
-4.1%	7.2%	/	9.5%	COc1ccc(N2CCN(C(=O)c3cc4c(C)nc5ccccc5c4o3)CC2)cc1
-0.9%	-9.5%	-1.4	-1.1%	CCN(CC(=O)NCc1cccs1)C(=O)c1ccc(S(=O)(=O)N(C)C)cc1
1.3%	14.1%	-8.5	15.3%	CCN(C(=O)CSc1nc2ccc([N+](=O)[O-])cc2s1)C1CCS(=O)(=O)C1 (centres undefined)
-0.4%	5.9%	/	-36.0%	CC(C)Oc1cccc(C(=O)Nc2ccc(N3CCN(C)CC3)cc2)c1
0.1%	-10.0%	/	0.2%	O=C(NCc1ccccc1)C1CCC(=O)N(CCCN2CCCC2=O)C1 (centres undefined)
2.2%	1.7%	/	-0.1%	O=C(NC1CCCCC1)c1cc(S(=O)(=O)N2CCOCC2)c(Cl)cc1Cl
-1.3%	1.8%	/	-2.5%	CS(=O)(=O)N1CCN(c2ccc(NC(=O)COc3ccccc3[N+](=O)[O-])cc2)CC1
2.1%	3.7%	5.0	6.1%	CC(C)N(Cc1nc(-c2ccccc2)no1)C(=O)CN(C)S(=O)(=O)c1ccc(Br)cc1
-1.3%	8.7%	/	/	COc1cc(SC)ccc1C(=O)N(C)CC(=O)Nc1cccc2ccccc12
-0.7%	9.3%	/	-2.5%	Cc1c(C(=O)N2CCCCC2)c(S(=O)(=O)N2CCN(c3ccc(Cl)cc3)CC2)c(C)n1C

Assay outcomes from PubChem.
